Assay outcomes as filed in PubChem BioAssay.
GIV Gai3 FP = GIV-Galpha-i interaction inhibition. Galpha-i3/FITC-GIV peptide fluorescence polarization, 90 min; hits give low values; scaled: aluminum fluoride 0%, vehicle 100%. percent of control (FP), % (no concentration beside the values). 0.42% of 210,000 active;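 active = replicate mean at 85% of control or lower, very high polarization wells dropped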;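 note: wells of about 15 µL received 100 nL stock; the first replicate is given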
Target sequence (P08753 whole entry, looked up): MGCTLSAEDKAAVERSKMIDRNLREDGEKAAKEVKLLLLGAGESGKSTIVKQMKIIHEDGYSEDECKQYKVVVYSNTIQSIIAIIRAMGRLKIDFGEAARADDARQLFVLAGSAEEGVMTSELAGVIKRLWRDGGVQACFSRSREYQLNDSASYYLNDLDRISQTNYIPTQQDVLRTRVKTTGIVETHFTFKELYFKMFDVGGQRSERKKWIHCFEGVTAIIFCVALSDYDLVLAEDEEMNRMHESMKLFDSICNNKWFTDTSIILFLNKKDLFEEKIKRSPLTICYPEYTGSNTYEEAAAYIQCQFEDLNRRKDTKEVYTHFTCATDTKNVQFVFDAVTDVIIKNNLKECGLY
HCMV UL50-53 inh = cytomegalovirus nuclear egress complex inhibition; 0.15% of 190,000 active; HTRF UL50-UL53 interaction, normalized percent inhibition; inhibition, % (no concentration beside the values);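 active = both replicates at 50% or more, plus weaker picks with an unusually low signal ratio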;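 note: stock transfer was 100 nL into about 20 µL; 0% = negative control wells and 100% = wells with untagged competitor protein; inactives centre near -12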
Sa growth inh = inhibitors of Staphylococcus aureus growth at 42 °C | S. aureus RN4220 growth, OD600, 20 h; hits give low values | 0.53% of 170,000 active | relative growth, % (no concentration beside the values);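 active = growth at 42 °C up to 50% and 20 or more points under that at 30 °C, or under 10% at both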;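 note: 300 nL library stock went into each well; scaled to the means of positive and negative controls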
Sa growth inh second temp = also measured in Sa growth inh; calls as there; relative growth, %; measured here: growth at 30 °C;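 optical density after 20 h as mean of two plates; 100% = untreated growth and lower means inhibition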
The depositor's hits bear a star; . = no result given.

Results follow in this order: GIV Gai3 FP | HCMV UL50-53 inh | Sa growth inh | Sa growth inh second temp
- CCOc1ccc(CCNC(=O)CCCn2c(=O)c3cccn3c3cccnc32)cc1OCC
  103 | . | 125 | 91
- CC(=O)Oc1cc(C)c(OC(C)=O)c(C)c1C
  101 | 10 | . | .
- COc1ccc(N2CCN(C(=O)CN=C3NS(=O)(=O)C(c4ccc(C)cc4)=C3C)CC2)cc1
  102 | -7 | 102 | 76
- Cc1ccc(C(=O)N2N=C3c4ccccc4S(=O)(=O)N3C2N2CCCCC2)cc1 (stereo not drawn)
  101 | . | 118 | 71
- CN1N=C(c2cccs2)CSC1=NCc1ccccc1
  . | -13 | 107 | 84
- CC(C(=O)N1c2ccc(F)cc2CCC1C)N1C(=O)c2ccccc2C1=O (stereo not drawn)
  100 | -22 | 96 | 82
- CC(=O)NS(=O)(=O)c1ccc(-c2ccc(/C=C3/C(=O)NN(c4cccc(Cl)c4)C3=O)o2)cc1
  100 | . | 92 | 87
- N#CCOC(=O)/C=C/c1ccc2c(c1)OCO2
  . | -51 | 88 | 91
- CCOC(=O)C1=C(c2ccccc2)NC(=S)NC1CC (stereo not drawn)
  97 | . | 112 | 94
- c1cc(OCc2nc3ccccc3s2)cc(-n2cnnn2)c1
  . | -22 | 92 | 92
- c1ccc(CNCc2ccccn2)cc1
  108 | 4 | 57 | 56
- O=C(Cn1nc(-c2ccccc2)c2c(c1=O)CCCC2)Nc1ccccc1
  106 | -10 | 112 | 76
- COc1cccc(C(=O)N2CCN(S(=O)(=O)c3ccc4c(c3)NC(=O)CO4)CC2)c1
  102 | -25 | . | .
- COC(=O)C1=CN(C)C=C(C(=O)OC)C1c1cccs1
  102 | -56 | 78 | 93
- CC(CCc1ccccc1)NC(=O)c1cccs1 (stereo not drawn)
  104 | -10 | 90 | 82
- CC1CCN(CCCNC(=O)CN2C(=O)CSc3ccc(S(=O)(=O)N4CCOCC4)cc32)CC1
  102 | . | 117 | 88
- S=C(NCCCN1CCOCC1)N1CCN(c2ccccc2)CC1
  106 | -13 | 114 | 93
- O=C(NCc1ccco1)NNc1nc2c(-c3ccccc3)nnn2c2ccccc12
  111 | -11 | 87 | 74
- CCOC(=O)c1c(CN2CCOCC2)n(C)c2cc(Br)c(OC(C)=O)cc12
  101 | -16 | 93 | 88
- CC1(C(=O)NC2CCCC2)Cn2cnc(C(=O)Nc3cccc(Cl)c3)c2C(=O)N1C1CC1 (stereo not drawn)
  107 | -25 | . | .
- CCOC(=O)c1cc(NC(=O)CSc2nc(C)nc3sc4c(c23)CCCC4)cc(C(=O)OCC)c1
  103 | 5 | . | .
- COc1ccc(C(=O)CSc2nsc(SCC(=O)c3ccc(OC)cc3)c2C#N)cc1
  . | 6 | 83 | 82
- O=C(COc1ccc2oc3c(c2c1)CCCC3)OCc1ccccn1
  . | 12 | 115 | 97
- COc1ccc(NC(=O)CSc2nccn2-c2ccccc2)cc1
  99 | . | 101 | 90
- CC(C)NC(=O)c1cc(-c2ccc(Cl)cc2)on1
  102 | . | 95 | 90
- O=C(OCC(=O)N1CCCC1=O)c1ccc(-c2ccc(O)cc2)cc1
  . | -24 | 83 | 90
- CC(C)CCNC(=O)c1cn(CC(C)C)c(=O)c2c1c1ccccc1n2C
  106 | . | 117 | 85
- FC(F)(F)c1cccc(Nc2c3c(nc4ccc(Cl)cc24)CCC3)c1
  108 | -6 | 94 | 72
- Cn1c(N)c(C#N)c2c(c1=S)CCCC2
  105 | -78 | 114 | 90
- CCOC(=O)c1c(-c2ccc(C)o2)csc1NC(=S)NC(=O)N(C)C
  110 | -12 | -0.6* | -0.3*
- COc1ccccc1-n1cc(C(=O)NCC(=O)NCC2COc3ccccc3O2)c2ccccc2c1=O (stereo not drawn)
  102 | . | 109 | 82
- COCCOC(=O)C1=C(C)NC2=C(C(=O)CC(c3ccc(OC)c(OC)c3)C2)C1c1ccc([N+](=O)[O-])cc1 (stereo not drawn)
  98 | -16 | . | .
- COc1ccc(NC(=O)c2ccccc2)cc1CN1CCn2c(nc3ccccc32)C1
  102 | -15 | . | .
- Cc1ccc(CNC(=O)CSCc2ccccc2C)cc1
  104 | . | 109 | 94
- O=C1c2ccc(-c3nc4ccccc4c(=O)o3)cc2C(=O)N1CC1CCCO1 (stereo not drawn)
  . | -1 | 89 | 92
- CCOC(=O)c1c(NC(=O)CSc2cn(CCNC(=O)c3ccc(OC)c(OC)c3)c3ccccc23)sc2c1CCCC2
  97 | -8 | 108 | 85
- CCCS(=O)(=O)c1c(C)c(C)n(Cc2cccc(Cl)c2)c1N
  172 | 2 | 84 | 81
- O=C1CC(c2ccc(Br)cc2)c2c(ccc3ccccc23)N1 (stereo not drawn)
  104 | -22 | 98 | 36
- COc1ccccc1CC(=O)NCc1ccc(-c2cccs2)cc1
  109 | -54 | 90 | 90
- CN(C)S(=O)(=O)c1ccc2c(c1)cc(C(=O)O)n2C
  102 | -25 | . | .
- CCC(CC)c1nc2cc(OC)c(OC)cc2c(=O)o1
  102 | 0 | 90 | 93
- N#Cc1c(N)n(CCc2ccccc2)c2nc3ccccc3nc12
  . | -15 | 96 | 75
- CCS(=O)(=O)Nc1cc(OC)c(OC)c(OC)c1
  109 | -6 | 107 | 99
- Cc1nc(N2CCCC2)ncc1C(=O)Nc1ccccc1
  113 | . | 105 | 97
- Cc1nnc(NC(=O)CSc2ccc3nnc(-c4ccc(F)cc4)n3n2)s1
  102 | -26 | . | .
- COc1ccc(C2CC(=O)Nc3c2c(C)nn3-c2ccc3nncn3n2)cc1Br (stereo not drawn)
  94 | -21 | . | .
- O=C(On1c(-c2ccccc2)cc2ccccc21)c1ccco1
  . | -32 | 104 | 69
- CCOC(=O)C(C)NC(=O)CCc1c(C)nc2c(c(C)nn2-c2ccc(C)c(C)c2)c1C (stereo not drawn)
  101 | -10 | . | .
- CCn1cnc(S(=O)(=O)N2CCC(C(=O)NCCC3=CCCCC3)CC2)c1
  100 | -20 | . | .
- Cc1ccc(-n2ncc3c(NCc4ccc5c(c4)OCO5)ncnc32)cc1
  105 | 13 | 102 | 102
- COc1ccc(S(=O)(=O)N(Cc2cc3cc4c(cc3n3nnnc23)OCO4)C2CCCCC2)cc1
  102 | -8 | 113 | 83
- O=C(Cc1cccs1)N(c1ccccc1)C1C=CS(=O)(=O)C1 (stereo not drawn)
  103 | . | 103 | 87
- CON(C)S(=O)(=O)c1cccc(C(=O)Oc2ccc(-c3nnco3)cc2)c1
  . | -18 | 74 | 82
- Cc1ccc(C2=NS(=O)(=O)N(C)C(C(=O)Nc3ccc4c(c3)OCO4)=C2)cc1
  101 | -13 | . | .
- Cc1ccc(Cn2c(CNS(=O)(=O)c3c(C)cc(C)cc3C)nc3cccnc32)cc1
  114 | . | 97 | 106
- CC(C)N(Cc1ccccc1)C(=O)COc1ncnc2c1cnn2-c1ccccc1
  . | -38 | 95 | 80
- O=C(O)Cn1nc(-c2ccccc2)ccc1=O
  103 | -26 | 98 | 91
- O=C(Cn1nnc(-c2cc(C(F)(F)F)cc(C(F)(F)F)c2)n1)c1ccc(Cl)cc1
  102 | -26 | 95 | 88
- N#Cc1ccc(C2SCCCS2)cc1
  99 | -20 | 90 | 89
- Cc1ccc(Cc2nc(CCNC(=O)c3ccc(Cl)cc3)n[nH]2)cc1
  100 | -7 | . | .

Going on with the list:
Results follow in this order: GIV Gai3 FP | HCMV UL50-53 inh | Sa growth inh | Sa growth inh second temp
- CCCCN(C)C(=O)c1ccc(Nc2ccnc(-c3cccc(C)c3)n2)cc1
  103 | -12 | . | .
- CCOc1ccc(C2c3c(oc4ccc(F)cc4c3=O)C(=O)N2CC2CCCO2)cc1OC (stereo not drawn)
  102 | -3 | 89 | 93
- CC(=O)Oc1ccccc1C(=O)Oc1ccc(/C=N\n2cnnc2)cc1
  102 | 3 | 79 | 75
- COc1ccc(/C=C/C(=O)OCC(=O)Nc2ccccc2Cl)cc1
  . | -34 | 114 | 94
- COc1cc(NC(=O)C2CCC(=O)N2S(=O)(=O)c2ccc(F)cc2)cc(OC)c1 (stereo not drawn)
  100 | -10 | . | .
- COc1cc(C2C3=C(CCCC3=O)Nc3[nH]c(=O)[nH]c(=O)c32)cc(OC)c1OC (stereo not drawn)
  103 | . | 73 | 89
- O=C1/C(=C\c2ccsc2)CC/C1=C/c1ccsc1
  103 | . | 111 | 75
- O=C1c2cccnc2C(=O)N1Cc1ccc(F)cc1S(=O)(=O)N1CCCC1
  103 | -16 | 96 | 95
- S=C(Nc1ccccc1)N1CCn2cccc2C1c1cccnc1 (stereo not drawn)
  101 | 2 | 97 | 93
- CCCNC(=O)Cn1c(=O)oc2cc(S(=O)(=O)N3CCCC3)ccc21
  102 | . | 114 | 84
- Cc1ccc(NC(=O)C(CC(C)C)NS(=O)(=O)c2ccc3c(c2)CCCC(=O)N3)cc1 (stereo not drawn)
  104 | -36 | 78 | 77
- CC(=O)Nc1ccc(S(=O)(=O)Nc2nc3n(n2)C(c2ccccc2)C=C(c2ccc(Cl)cc2)N3)cc1 (stereo not drawn)
  111 | . | 111 | 82
- CSCC(CSC)OC(=O)c1c(-c2c(Cl)cccc2Cl)noc1C
  106 | -29 | 120 | 93
- CCCc1nn2c(=O)cc(COC(=O)c3ccc(NC(=O)COc4ccccc4)cc3)nc2s1
  102 | . | 97 | 92
- Cc1cc(Br)ccc1NC(=O)CSc1c2c(nc3ccccc13)CCC2
  108 | -20 | 108 | 93
- O=C(NC1CC1)c1cc2ccc3cccnc3c2[nH]1
  98 | -3 | . | .
- COc1cc(CN(C(=O)/C(=C/c2cccnc2)NC(=O)c2ccccc2)C2CCCCC2)ccc1O
  101 | . | 95 | 88
- CC(Sc1nc2c(c(=O)[nH]1)CCCC2)C(=O)Nc1ccc(Br)cc1 (stereo not drawn)
  103 | -26 | . | .
- Cc1ccc(C)c(S(=O)(=O)N2CCN(c3cc(=O)n4nc(-c5ccccc5C)sc4n3)CC2)c1
  111 | 28 | . | .
- C#CCCN1CCN(C(=O)Nc2ccc(F)cc2)CC1
  100 | -28 | 90 | 100
- Cc1cccc(Cn2c(CN3CCC(C(=O)NCCc4ccccc4)CC3)cc3ccccc32)c1
  107 | . | 137 | 104
- CC(C)/C(N)=N/OC(=O)c1ccc(I)cc1
  101 | -15 | 90 | 77
- COCCn1c(SCC(=O)c2ccc3c(c2)OCCO3)nc2ccccc2c1=O
  . | -34 | 91 | 83
- NCCCNc1ccc(C(F)(F)F)cn1
  111 | 5 | 100 | 107
- CN1C(=O)CC(C(=O)Nc2ccc(C(=O)O)cc2)SC1=Nc1ccc(Cl)cc1 (stereo not drawn)
  110 | -53 | 92 | 87
- CC(=O)N1C(=O)/C(=C2\SC(=S)N(c3c(C)n(C)n(-c4ccccc4)c3=O)C2=O)c2ccccc21
  104 | -15 | . | .
- CCOC(=S)SCc1ccc(C(=O)Oc2ccc(F)cc2F)cc1
  103 | -19 | 103 | 90
- O=C1c2ccccc2-c2nn(C(=O)C3CCCCC3)c3cccc1c23
  106 | . | 102 | 89
- COc1ccccc1CNC(=O)CCn1nc(C)c2c(C)n(-c3ccccc3)nc2c1=O
  97 | . | 86 | 89
- Cc1ccc(NC(=O)CCCc2nnc3n(C)c(=O)c4sccc4n23)cc1F
  99 | 36 | 106 | 95
- CN(C)c1ccc(CNC(=O)C2CCCN(S(=O)(=O)c3ccc4c(c3)oc(=O)n4C)C2)cc1 (stereo not drawn)
  105 | -45 | 112 | 92
- COc1ccc(CN=Cc2c(O)[nH]c3ccccc23)cc1OC
  98 | -62 | 96 | 105
- CCCNC(=O)c1ccccc1NC(=O)c1ccco1
  . | -4 | 101 | 89
- CC1=CC(C)C2COC(c3ccccc3OCc3ccccc3)C1C2C (stereo not drawn)
  . | -8 | 92 | 107
- CCN(CC(=O)NCc1ccc(Cl)cc1)CN1C(=O)C2CC=CCC2C1=O (stereo not drawn)
  . | -43 | 93 | 95
- CS(=O)(=O)c1cccc(C(=O)Nc2ccnn2C2CCCC2)c1
  . | -20 | 71 | 94
- O=C1/C(=C/c2cccs2)CSc2ccc(F)cc21
  102 | -2 | 91 | 90
- COC(=O)CNC(=O)c1nn(-c2ccc(OC)cc2OC)c(=O)c2ccccc12
  105 | . | 106 | 92
- CCOc1ccc(OCC)c(NC(=O)C(NS(=O)(=O)c2cccs2)C(C)C)c1 (stereo not drawn)
  112 | . | 94 | 88
- N=C1SCC(=O)N1c1nc(-c2ccccc2)cs1
  106 | -22 | 98 | 82
- CCOC(=O)c1ccc(N=C(N)SCc2ccc(Cl)cc2)cc1
  100 | -34 | 71 | 70
- CN(C)c1ccc(C(CNC(=O)C2CC2)N2CCN(c3ccc(F)cc3)CC2)cc1 (stereo not drawn)
  101 | -24 | . | .
- COc1ccc(C(=O)NCCc2cn3ccccc3n2)cc1
  106 | -16 | 110 | 89
- CCc1ccc(CN(C)CCc2ccccn2)cc1
  100 | 3 | 110 | 92
- O=C1c2ccccc2C(=O)N1CCc1ccccc1
  98 | -20 | 103 | 94
- CSc1nncn1/N=C/c1ccc(Br)cc1
  102 | -63 | 116 | 90
- O=C1N=C(c2ccccc2)S/C1=C\c1cccs1
  113 | . | 54 | 49
- CCOC(=O)C1=C(C)N=c2s/c(=C/c3ccc(N(C)C)cc3)c(=O)n2C1c1ccc(OC(C)=O)cc1 (stereo not drawn)
  166 | -18 | . | .

Compounds as they come. About 0.85% of those tested had a hit in this group.
